Compound activity from PubChem BioAssay.
PrP 5UTR inh: inhibition of PrP 5' UTR reporter expression. cell-based PrP 5' UTR mRNA reporter, plate reader. inhibition, % (test concentration not listed). 340,000 tested, 0.35% active. AID 488862;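 active means every replicate at 50% or more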;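 further: 0 = median of the neutral control wells; tested in H4 reporter cells; numbers are from one replicate; inactives centre near -14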
BJeLR viability: kills HRASV12-expressing BJeLR cells. BJeLR (HRASV12) viability, CellTiter-Glo ATP luminescence, 48 h; reference of the scale not given here. AID 1554. 300,000 tested, 0.17% active. inhibition, % (test concentration not listed);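 active means replicate mean above 50%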;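 further: 50 nL library stock added to about 25 µL; numbers are from one replicate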
Bead autofluor: compound fluorescence in toxin protease inhibitor counterscreen | AID 624483 | 360,000 tested, 3.1% active | compound autofluorescence counterscreen, microsphere flow cytometry; hits give high values | fluorescence intensity (test concentration not listed);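 active means at least 3 SD above the mean of all compounds, about 16000 in these data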;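 further: 100 nL of 1 mM stock went into each well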
Sa RN4220 lethal: S. aureus RN4220 growth inhibition | inhibition, % (no concentration beside the values) | OD600, 16 h | 330,000 tested, 0.33% active;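 active means z-score of -3 or lower and OD600 up to 0.18 on both plates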;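 further: plate controls were untreated cells for no effect and reference antibiotic for full effect; stock transfer was 100 nL into about 80 µL; one replicate is shown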
Mtb hypoxia inh: inhibitors of hypoxia-regulated fluorescent reporter in Mycobacterium tuberculosis. M. tuberculosis hypoxia-regulated fluorescent reporter, fluorescence. 300,000 tested, 0.1% active. fluorescence inhibition, % (no concentration beside the values);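 active means 35 to 45% if threefold the growth effect, above 45% if 1.5-fold the growth effect; inactive means the rest, general growth blockers included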;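 further: wells of about 50 µL received 100 nL stock; 0% = vehicle wells and 100% = reference inhibitor wells; whole bacteria with a GFP reporter of the hypoxia response; strong numbers were not always called active; many hits fall short of the cut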
ugtP null kill: kills S. aureus RN4220 lacking UgtP; 330,000 tested, 0.54% active; growth inhibition, % (test concentration not listed); S. aureus RN4220 ugtP deletion, OD600 growth, 16 h; some inactives read as strong as hits;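 active means z-score under -3 and OD600 up to 0.15 on both plates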;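 further: plate controls were untreated wells for no effect and antibiotic for full effect; wells of about 80 µL received 100 nL stock; the first replicate is given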
Mtb hypoxia inh growth: recorded beside Mtb hypoxia inh, whose call it bears; growth inhibition, %; measured here: M. tuberculosis growth (absorbance);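 0% = vehicle and 100% = reference antibiotic; read after six days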
* hit, by the source's call; nt = not tested or not shown.

SMILES | PrP 5UTR inh | BJeLR viability | Bead autofluor | Sa RN4220 lethal | Mtb hypoxia inh | Mtb hypoxia inh growth | ugtP null kill
CC(=O)O[C@@H]1[C@H]2CC[C@@H]3[C@]1(C[C@@H](OC(C)=O)[C@@]1(O)C([C@@H]4O[C@@H]4C1(C)C)[C@]3(C)O)C[C@@]2(C)O (some centres not stated) | -17 | 0 | 3654 | nt | nt | nt | nt
CCN(CC)S(=O)(=O)c1cc(C(=O)N(C)CC(=O)Nc2ccc(Cl)cc2)ccc1Cl | -5 | 4 | 2873 | 0.3 | 9 | -2 | -1
NC(=O)c1ccccc1NC(=O)CSc1cn[nH]n1 | -18 | 3 | 3899 | 0.3 | 10 | 1 | 3
O=C(c1ccc(S(=O)(=O)N2CCCCC2)cc1)N1CCCc2ccccc21 | -4 | 1 | 10049 | 2.9 | 4 | -1 | 1
Cc1cc(C)nc(-n2nc(C)cc2NC(=O)CN2CCCC2)n1 | -20 | -5 | 2573 | 3.8 | -1 | -2 | -4
Cc1ccc(NCCc2ccc(C)nc2)cc1 | -22 | 2 | 3086 | 2.9 | 2 | 1 | -3
CCN(CC)C(=O)c1[nH]cnc1C(=O)N[C@@H](C)C(=O)OC(C)(C)C | -13 | 7 | 2825 | nt | nt | nt | nt
O=C(Oc1ccccc1)c1ccc(NC(=O)c2ccco2)cc1 | -35 | -11 | 2472 | -1.7 | -5 | 14 | -9
O=C(CSc1nnnn1C1CCCCC1)N1c2ccccc2Sc2ccccc21 | -23 | -4 | 19588* | -6.5 | 2 | 3 | -3
O=C(c1noc2c1CCCC2)N1CCN(Cc2ccccc2)CC1 | -49 | 8 | 10977 | 2.7 | 12 | 5 | 7
COCCCNC(=S)N1CCN(C(c2ccccc2)c2ccccc2)CC1 | -13 | 3 | 5714 | -2.3 | 2 | 4 | 9
Cc1ccc(/C=C/S(=O)(=O)N2CCC(C(=O)O)CC2)cc1 | -1 | -2 | 6953 | 1.4 | 7 | 4 | 1
CCCCn1c(-c2nonc2N)nc2ccccc21 | -3 | 4 | 3546 | 19 | 16 | 8 | 22
C[C@]12CC[C@H](O)CC1=C([N+](=O)[O-])CC1C2CC[C@@]2(C)C1CC[C@@H]2O (some centres not stated) | -17 | nt | 3620 | -0.2 | 7 | 4 | 12
O=C(C=Cc1ccc2c(c1)OCO2)OCC=Cc1ccc2c(c1)OCO2 | -23 | nt | 3486 | 5.5 | 5 | 8 | 20
Cc1ccc(C(=O)N(c2c(C)n(C)n(-c3ccccc3)c2=O)C(C)C)cc1 | -11 | -11 | 8994 | 5.7 | 0 | 10 | 2
O=C1NC(=O)C(=Cc2coc3ccccc3c2=O)C(=O)N1 | -22 | 6 | 2524 | 2.3 | 2 | -5 | -2
CCCC#Cc1ccc2c(c1)COc1c3ccccc3nn1-2 | -41 | 3 | 3975 | 10.0 | 2 | 3 | 15
COCCn1c(SCC(=O)NCCCN2CCCC2=O)nc2ccccc2c1=O | -48 | nt | 3798 | 3.9 | 11 | 0 | 3
Cc1ccc(NC(=O)/C(=C\c2ccccc2)NC(=O)/C=C/c2ccccc2)cc1 | -23 | 8 | 8038 | 0.2 | 3 | 7 | -1

Laid out differently: two of the compounds above
Structure,PrP 5UTR inh,BJeLR viability,Bead autofluor,Sa RN4220 lethal,Mtb hypoxia inh,Mtb hypoxia inh growth,ugtP null kill
COCCCNC(=S)N1CCN(C(c2ccccc2)c2ccccc2)CC1,-13,3,5714,-2.3,2,4,9
O=C(CSc1nnnn1C1CCCCC1)N1c2ccccc2Sc2ccccc21,-23,-4,19588*,-6.5,2,3,-3

Carrying on.
SMILES | PrP 5UTR inh | BJeLR viability | Bead autofluor | Sa RN4220 lethal | Mtb hypoxia inh | Mtb hypoxia inh growth | ugtP null kill
COc1ccc(CN(Cc2cc3cccc(C)c3[nH]c2=O)C(=O)N(C)C)cc1 | -1 | 7 | 4182 | -2.2 | 2 | 5 | -5
CCOC(=O)c1cc(C(=O)OCC)cc(-n2c(C)cc(C(=O)CN3CCOCC3)c2C)c1 | -13 | -2 | 3241 | 7.4 | -3 | 7 | 1
COc1ccc(CC(=O)Nc2ccc(C#N)c(Cl)c2)cc1S(=O)(=O)N1CCOCC1 | -2 | -1 | 4581 | -3.4 | 4 | 2 | -6
Cc1cc(NC(=O)C23CC4CC(C2)CC(n2cnc([N+](=O)[O-])n2)(C4)C3)no1 | -7 | 0 | 1997 | -11 | -5 | -1 | 31
Cc1ccc(Cl)cc1N1CCN(C(=S)NCc2ccco2)CC1 | -17 | -1 | 5093 | -1.3 | 10 | 3 | 12
O=C(OCC(=O)C12CC3CC(CC(C3)C1)C2)c1ccc(CO)cc1 | -26 | nt | 8758 | -0.5 | 25* | 56* | 0
COc1ccc(C2(C#N)CCN(C)CC2)cc1 | -17 | 12 | 10410 | 4.3 | 1 | -3 | -1
C=C1CCN(C(CC(C)C)C(=O)OC)S(=O)(=O)c2ccccc21 (configuration not stated) | -15 | 3 | 3882 | 4.9 | 13 | 5 | 7
O=S(=O)(Nc1ncccn1)c1ccc(NS(=O)(=O)c2cccc(Cl)c2Cl)cc1 | -9 | 3 | 4848 | 4.4 | 7 | 11 | -6
O=C(COc1ccc(Cl)cc1Cl)Nc1ccc(-c2ccc(N3CCOCC3)nn2)cc1 | -29 | 1 | 4098 | 14 | 8 | 4 | 14
Cc1ccc(C2CC(=O)c3cnc(N4CCN(c5ccccc5)CC4)nc3C2)cc1 (configuration not stated) | -32 | 3 | 9394 | -1.0 | 16 | 5 | 3
Cc1cc2nc3c(c(C(F)(F)F)n2n1)CCCC3 | -24 | nt | 4276 | 3.5 | -12 | 2 | -3
O=C(/C=C/c1c(Cl)cccc1Cl)NCCCn1ccnc1 | nt | -1 | 4553 | -0.4 | -7 | -2 | -2
Cc1ccc(S(=O)(=O)N2CCN(C(=O)C(C)Cn3nc(C)c(C)c3C)CC2)cc1C (configuration not stated) | 6 | -2 | 3662 | 4.1 | -4 | 3 | -2
COC(=O)Cn1c2ccc(C)cc2c2nc3ccccc3nc21 | -19 | 22 | 3348 | 4.8 | 6 | -3 | 18
COc1ccc(OC)c(N(CC(=O)Nc2cccnc2)S(=O)(=O)c2ccc(OC)c(OC)c2)c1 | -20 | -7 | 2485 | 0.5 | nt | nt | -1
O=C(NCCCN1CCOCC1)c1cc2c(=O)[nH]c3ccccc3c2s1 | -3 | 12 | 4179 | 2.8 | 4 | 8 | 2
Cc1nc2c(-c3ccc(F)cc3)c(C)nn2c(C)c1CCC(=O)Nc1ccc(F)cc1F | -19 | -5 | 3306 | -0.1 | 6 | 3 | 6
Cc1ccc(-c2nc(C)sc2CC(=O)Nc2cccc(C)c2C)cc1 | -12 | 4 | 2109 | 1.8 | 7 | 9 | 3
CC(=O)Nc1ccccc1NC(=O)c1cccc2ccccc12 | 0 | -10 | 2610 | 2.6 | 8 | 10 | -3

In the list so far, 2 contain fluorine.
SMILES | PrP 5UTR inh | BJeLR viability | Bead autofluor | Sa RN4220 lethal | Mtb hypoxia inh | Mtb hypoxia inh growth | ugtP null kill
Cc1cc2nc3c(c(C(F)(F)F)n2n1)CCCC3 | -24 | nt | 4276 | 3.5 | -12 | 2 | -3
Cc1nc2c(-c3ccc(F)cc3)c(C)nn2c(C)c1CCC(=O)Nc1ccc(F)cc1F | -19 | -5 | 3306 | -0.1 | 6 | 3 | 6

Continuation.
SMILES | PrP 5UTR inh | BJeLR viability | Bead autofluor | Sa RN4220 lethal | Mtb hypoxia inh | Mtb hypoxia inh growth | ugtP null kill
Cc1ccc(C(=O)Nc2cccc(C(=O)N/N=C/c3ccccc3F)c2)cc1 | 9 | -1 | 3829 | nt | nt | nt | nt
CCCc1cnc(N2CCN(C(=O)c3ccc(F)cc3)CC2)nc1 | -8 | 4 | 3760 | 3.3 | 2 | -1 | 9
Cc1ccccc1NC(=O)Cc1nc(COC(=O)COc2ccc(C(C)(C)C)cc2)cs1 | -2 | nt | 3766 | 11 | 3 | 2 | 11
Cc1cc(NC(=O)c2cccnc2Cl)ccc1NC(=O)c1cc2ccccc2o1 | -11 | -3 | 5674 | 2.2 | -13 | -1 | 2
C=CCOc1ccc(CN(C)CC(O)COc2cccc3ccccc23)cc1 (configuration not stated) | -17 | -8 | 2904 | -4.1 | 2 | 3 | -22
CCc1cccc2c(N=O)c(O)[nH]c12 | -8 | -1 | 2016 | 6.9 | 7 | 9 | -8
COc1ccc(N(CC(=O)NCCSC2CCCCC2)S(=O)(=O)c2ccc(C)cc2)cc1 | -17 | 0 | nt | -1.1 | -4 | -30 | -8
Cn1c(=O)c2c(ncn2CC(=O)N2CCN(S(=O)(=O)c3ccc(Cl)cc3)CC2)n(C)c1=O | -4 | 7 | 6588 | 1.4 | 5 | 0 | 4
Cc1ccc(NC(=O)CN2C(=O)C3CCCCN3C(=O)c3ccccc32)cc1 (configuration not stated) | -17 | 1 | 2892 | -15 | 3 | 9 | -9
C=CCOC(=O)c1[nH]c2c(c1C)C(=O)CC(c1cc(OC)c(OC)c(OC)c1)C2 (configuration not stated) | 1 | 5 | 5245 | -2.0 | nt | nt | 5
O=C(COC(=O)c1ccccc1Br)NCC1CCCCC1 | nt | nt | 3407 | -0.4 | -3 | 5 | -4
COc1ccc(C(=O)N/N=C(\C)Cn2nc([N+](=O)[O-])cc2C)cc1 | 1 | 4 | 2206 | nt | nt | nt | nt
CCOC(=O)N1CCN(c2c(NCC3CCCO3)c(=O)c2=O)CC1 (configuration not stated) | -22 | -2 | 5851 | 4.2 | 5 | 3 | 10
COc1ccc(-c2nnc(N(C)C(=O)c3ccno3)s2)cc1 | -44 | -4 | 2964 | -12 | 18 | 12 | -3
Cc1ccc(-c2noc(-c3cc4ccccc4oc3=O)n2)cc1 | -20 | -7 | 3054 | -6.7 | 6 | 5 | -9
Cn1c(=O)n(CC(=O)NCC2CCCO2)c(=O)c2c3c(sc21)COC(C)(C)C3 (configuration not stated) | -5 | 2 | 5801 | 0.7 | 1 | 3 | 1
O=C(N/N=C\C=C\c1ccc2c(c1)OCO2)C1COc2cc3ccccc3cc2O1 (configuration not stated) | -3 | 1 | 3630 | nt | nt | nt | nt
CC(OC(=O)CCCN=C1NS(=O)(=O)c2ccccc21)C(=O)Nc1ccc(F)cc1Cl (configuration not stated) | -5 | -16 | 5089 | 2.6 | 2 | 3 | 4
COc1ccc(NC(=O)CN(c2ccc(OC)cc2)S(=O)(=O)c2ccc(OC)c(OC)c2)cc1 | -10 | -12 | 3044 | 5.3 | 10 | 18 | 9
O=C(NCCN1CCCCC1)c1ccc(F)cc1Cl | -27 | 2 | 3927 | 0.5 | 8 | 5 | 8
COc1ccccc1S(=O)(=O)Cc1ccc(C(=O)NCc2ccco2)o1 | -7 | 2 | 4573 | 5.4 | 12 | 1 | 5
COc1ccc(S(=O)(=O)Nc2cc(C(=O)NC(C)C)ccc2N2CCOCC2)cc1 | -40 | -1 | 12264 | 3.1 | 11 | 8 | 11
Cc1ccc(S(=O)(=O)c2cc3c(=O)n4cccc(C)c4nc3n(CC3CCCO3)c2=N)cc1C (configuration not stated) | -6 | 4 | 4932 | 1.4 | 13 | 2 | 3
CCc1nn(CC(=O)NCCCN(CC)c2cccc(C)c2)c(=O)c2cc3occc3n12 | nt | 8 | nt | 4.0 | -4 | 4 | -11
C/C(=N\Nc1cc(C(F)(F)F)ccc1Cl)c1ccncc1 | -11 | 1 | 5323 | nt | nt | nt | nt
Cn1cc(C(=O)N2CCCC(Nc3ccc(F)cc3)C2)c2ccccc21 (configuration not stated) | -21 | 11 | 5066 | 1.2 | -7 | -8 | 2
Cc1cc(/C=C2\C(=O)NC(=O)N(c3cccc(F)c3)C2=O)c(C)n1-c1ccc(C(=O)O)c(Cl)c1 | -18 | -3 | 4043 | 1.4 | 12 | 6 | -2
Cc1nc(CNS(=O)(=O)c2cc(C)c(C)cc2C)cs1 | -14 | -11 | 2187 | 1.5 | 10 | 4 | 6
COc1ccc(/C=N/n2cnc3c([nH]c4ccc(F)cc43)c2=O)cc1CSc1ccccn1 | -2 | 17 | 4951 | nt | nt | nt | nt
Cc1cccc(C)c1-n1c(C)cc(/C=N/NC(N)=S)c1C | -19 | 8 | 3408 | nt | nt | nt | nt
Cc1nnc(SCc2nc3scc(-c4ccccc4)c3c(=O)[nH]2)s1 | -21 | -1 | 6204 | 3.7 | 5 | -2 | 0
Nc1ccc(C(=O)NN=Cc2ccccc2)cc1 | nt | nt | nt | 3.5 | 6 | 9 | -2
O=C(COc1ccccc1)Nc1ccc2[nH]c(=O)[nH]c2c1 | -11 | -1 | 4846 | -0.1 | 3 | -9 | 3
